# RGS4 inh = human RGS4 inhibition; P49798; Transcreener GDP fluorescence polarization, RGS4-accelerated GTP hydrolysis; Potency, µM (titrated, usually from 114 µM), for inactives: at the highest dose activity change, negative = inhibition, usual class: inhibitors; 390,000 tested, 0.039% active; note: potency is the fitted concentration of half-maximal effect; % is set by controls: 0 for no effect and ±100 for the full control effect; nearly all actives have a fitted effect of over 75% in size; some results filed as inactive show a strong effect at the top dose
# Target sequence (P49798 whole entry, looked up): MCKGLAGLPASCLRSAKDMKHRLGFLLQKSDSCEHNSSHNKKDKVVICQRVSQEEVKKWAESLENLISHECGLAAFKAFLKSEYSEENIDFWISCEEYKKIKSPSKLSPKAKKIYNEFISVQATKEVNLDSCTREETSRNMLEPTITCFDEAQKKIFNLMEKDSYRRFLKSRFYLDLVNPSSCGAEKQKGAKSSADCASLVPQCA
#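 MLSMR compounds (23 nl, pin-transferred) preincubated 10 min at room temperature with a 500nM (2x) first reagent, then RGS4 at 900nM (2x) plus Transcreener GDP mix added; fluorescence polarization (620/688 nm) read before and after 90 min at 30 °C.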
# 12-LOX inh = ALOX12 (human) lipoxygenase inhibition. P18054. purified 12hLO, xylenol orange hydroperoxide absorbance. Potency, µM (titrated, usually from 108 µM), for inactives: top-dose activity change, negative = inhibition, actives largely listed as inhibitors. 580,000 tested, 1.1% active. AID 1671190; note: potency is the fitted concentration of half-maximal effect; % is set by controls: 0 for no effect and ±100 for the full control effect
#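 Purified human 12hLO at 150 nM in 25 mM Hepes, 0.01% Triton X-100, pH 7.0, preincubated 15 min at room temperature with compound. Reaction started with 40 uM arachidonic acid, 30 min at room temperature. Hydroperoxide measured by Fe-xylenol orange, 573/405 nm absorbance ratio.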
# Apoferritin bind = binds horse apoferritin like a general anesthetic; Potency, µM (titrated, usually from 77.5 µM), inactives show at the top dose activity change, negative = displacement, most hits filed as inhibitors; P02791; 350,000 tested, 0.074% active; AID 485281; apoferritin/1-aminoanthracene competitive binding, fluorescence; note: potency is the fitted concentration of half-maximal effect; % is set by controls: 0 for no effect and ±100 for the full control effect; nearly all actives have a fitted effect of over 20% in size
# Target sequence (P02791 2-175 limits assumed): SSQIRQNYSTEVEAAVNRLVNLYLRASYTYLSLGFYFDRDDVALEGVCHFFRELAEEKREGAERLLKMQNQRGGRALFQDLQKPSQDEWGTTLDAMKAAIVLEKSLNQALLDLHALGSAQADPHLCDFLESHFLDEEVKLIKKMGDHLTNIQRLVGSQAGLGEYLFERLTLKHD
#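 Steps: apoferritin (10 uM) was premixed with half-saturated 1-AMA in PBS, compounds were pin-transferred, plates stood 10 min at room temperature, fluorescence was read at 380/535 nm, and curves were fitted with a Hill equation.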
# ERG Ets-DNA blk = ERG Ets/DNA interaction inhibition; P11308; fluorescence polarization, His-ERG Ets domain / labelled DNA; Potency, µM (highest dose often 76.9 µM), for inactives: at the top dose FP activity, negative = inhibition, hits mostly inhibitors; 370,000 tested, 0.028% active; active = well fitted inhibition curve with a large enough effect in the polarisation, with a control signal flat; inconclusive = small, poorly fitted or top-dose-only effect, or effect the other way, or a change in a side signal; inactive = no such curve, though single readings can be large or run the other way; the % refers to the polarisation;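 note: polarization taken with two DNA probes labelled with fluorescein and Texas red; potency is the fitted concentration of half-maximal effect; % of control where 0% means no effect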
#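 His-tagged ERG Ets domain (1 uM in the protein solution; 300mM KCl, 50mM Tris-HCl, 1mM EDTA, 1mM DTT, pH 7.5) received compound, then a probe mix of 5 nM fluorescein-DNA and 100nM Texas-615-DNA. Fluorescence polarization was read for both dyes.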
# LDHA block = LDHA (human) enzyme inhibition | P00338 | purified LDHA, NADH/diaphorase-resazurin fluorescence; stronger effect = lower value | activity change, % (values are at about 110 or 230 µM) | 480,000 tested, 0.15% active; in the data active = activity change below about -30%; inconclusive = mostly about -25% to -30%;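 note: plate controls were DMSO wells for no effect and wells without enzyme for full effect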
#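 Resorufin fluorescence (ex540/em590), read at 0 and 20 min after diaphorase/resazurin addition, reports the NADH left after a 5 min room-temperature reaction of 2 nM human LDH5 with 0.06 mM NADH and 0.2 mM pyruvate.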
# Pol kappa inh = blocks human DNA polymerase kappa activity | Q9UBT6 | purified Pol kappa, fluorescent DNA synthesis assay, 10 min | Potency, µM (top dose mostly 107 µM), without a hit: at the top dose activity, negative = inhibition, hits mostly inhibitors | 400,000 tested, 0.53% active | AID 588579; note: potency is the fitted concentration of half-maximal effect; % is set by controls: 0 for no effect and ±100 for the full control effect
#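 Inhibition of 10 nM Pol kappa is measured by a fluorescent read-out at 0 and 10 min following addition of 50 nM substrate (final), with a 15-min room-temperature compound preincubation.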
# The depositor's hits bear a star; ? = inconclusive; . = not tested or not shown; & = joins results of further samples; [ ] = another dose, or the depositor's remark. Unless noted, calls come from the whole dose curve; as a rule, active = well fitted curve in the direction sought with a large enough effect; inconclusive = small, poorly fitted or top-dose-only effect, or another doubt; inactive = no such curve, though single readings can be large; an effect the other way counts as inactive or inconclusive.
nr	SMILES	RGS4 inh	12-LOX inh	Apoferritin bind
1	COc1ccc(Br)cc1/C=N/n1c(C)nnc1C	22%	0%	-1%
2	COC(=O)[C@@H](NC(=O)N1CCN(C(=O)C2COc3ccccc3O2)CC1)C(C)C (stereo not given in full)	-2%	?	-1%
3	C/C(=N\NC(=O)c1ccccc1[N+](=O)[O-])c1c(O)cc(C)oc1=O	-16%	2%	3%
4	Cc1cc(N/N=C/c2ccccc2[N+](=O)[O-])nc(-n2nc(C)cc2C)n1	-2%	91%[activator]	-5%
5	CCc1cccc(NC(=O)CCS(=O)(=O)c2ccc3c(c2)NC(=O)CO3)c1	-16%[11.4 µM]	13%	3%
6	CC(C)OCCOc1ccc2oc(-c3ccco3)cc(=O)c2c1	-18%	?	7%
7	CCOc1ccc(OCC(=O)Nc2ccccc2C(F)(F)F)cc1	-29%	-5%	-14%
8	O=C(COC(=O)c1ccc(O)cc1)Nc1cccc(S(=O)(=O)NC2=NCCC2)c1	-1%	13%	.
9	Cc1cccc(C)c1NC(=O)CSc1nnc(-c2ccco2)n1N	-17%	-22%	-5%
10	O=C(O)c1ccc(-c2ccc(-c3ccccc3)cc2)o1	.	.	-7%[163 µM]
11	Cc1ccc(OCCCC(=O)Nc2ccc(S(N)(=O)=O)cc2)cc1	19%	?	0%
12	COc1ccc(/C(C)=N/NC(=O)c2ccc(NS(=O)(=O)c3cccs3)cc2)cc1	20%	8%	-15%
13	CCOC(=O)c1sc(NC(=O)C2CCCO2)c(C(=O)OCC)c1C (stereo not given)	.	2%	-7%
14	CN(C)CCCN(CCCNC(=O)/C=N/O)Cc1ccccc1	-9%	10%	-2%
15	COc1ccccc1NC(=O)C1=C(C)Nc2nnnn2C1c1cccc(Br)c1 (stereo not given)	4%	-17%	-23%

nr	ERG Ets-DNA blk	LDHA block	Pol kappa inh
1	-5%	-2	-13%
2	-1%	-1	0%
3	4%	1	1%
4	3%	-5	-5%
5	1%	0	15%
6	-12%	-10	-15%
7	-7%	-3	-12%
8	5%	-3	-12%
9	-2%	0	-1%
10	.	.	-13%
11	14%	-4	2%
12	2%	-5	-13%
13	.	1	.
14	-14%	-7	-6%
15	-3%	0	1%

# Going on with the list.
nr	SMILES	RGS4 inh	12-LOX inh	Apoferritin bind
16	CCSC1=C(C#N)C(=O)n2c1cc1c2CCCC1	-52%	?	-24%
17	O=c1oc2cc(OCc3c(F)cccc3Cl)ccc2cc1-c1ccccn1	-12%	-21%	-11%
18	CC(C)NC(=O)NC(=O)COC(=O)Cc1c(F)cccc1Cl	3%	-8%	?
19	CC1=C(C(=O)O)N2C(=O)C(NC(=O)C(N)c3ccccc3)C2SC1 (stereo not given)	.	.	.
20	CC1(C)Cc2ccccc2C(/C(C#N)=N/O)=N1	2%	0%	-10%
21	O=C(O)c1nccnc1C(=O)Nc1ccc(Cl)cc1Cl	15%	?	0%
22	CC(=O)c1cccc(NC(=O)CCS(=O)(=O)c2cc3c(cc2C)NC(=O)CO3)c1	-5%&1%	8%&-16%	-7%&119%
23	CCOC(=O)/C(=N\O)C1=NC(C)(C)Cc2ccccc21	22%	-3%	-2%
24	CC(C)CCC(C)NC(=O)Cc1ccc(S(=O)(=O)N2CCOCC2)s1 (stereo not given)	3%	10%	-7%
25	O=C(O)Cc1ccc(S(=O)(=O)N2CCCC2)s1	1%	-27%	.
26	O=C(CN(Cc1ccc(F)cc1)C(=O)c1ccco1)NCc1ccc(F)cc1	-12%	152%[activator][57.4 µM]	-5%
27	CCN(Cc1cnn(C)c1)Cc1nc(C2(c3ccc(C)cc3)CCCC2)no1	?	2%	-16%
28	CCCCCSc1nc(O)cc(=O)[nH]1	-17%	0%	-15%
29	c1ccc(-c2nc(CSc3n[nH]c(-c4cccs4)n3)cs2)cc1	-5%	13%	-21%
30	COc1cccc(NC(=O)CCC(=O)NCc2ccco2)c1	5%	22%	1%

nr	ERG Ets-DNA blk	LDHA block	Pol kappa inh
16	0%	4	-25%
17	-9%	-2	2%
18	-2%	-9	-3%
19	.	.	-2%[60.1 µM]
20	-3%	3	5%
21	-6%	-8	3%
22	-13%&-2%	0&-4	-4%&-4%
23	6%	-5	-6%
24	-1%	-2	-1%
25	9%	-3	79µM*
26	4%	-9	-6%
27	-3%	-8	-42%
28	-5%	-1	-13%
29	4%	1	-13%
30	-7%	-5	-1%

# Following part:
nr	SMILES	RGS4 inh	12-LOX inh	Apoferritin bind
31	O=C(c1cc2ccccc2oc1=O)N(Cc1cccs1)CC1CCCO1 (stereo not given)	6%	-13%	-6%
32	CCN(CC)CCOCCOc1ccc(Cl)c2ccccc12	5%	?	-8%
33	O=C(O)c1c2c(nc3ccccc13)/C(=C/c1c(F)cccc1F)CCC2	4%	?	-8%
34	Cc1cc(C)c(NC(=O)C2CCCN2CCOC(=O)c2cccc([N+](=O)[O-])c2)c(C)c1 (stereo not given)	12%	-11%	-14%
35	COc1ccc(CNc2nc(NCc3ccc(OC)cc3)n(C(=O)c3ccccc3[N+](=O)[O-])n2)cc1	-6%	3%	-21%
36	COc1cc(/C=C/C(=O)O)cc(S(=O)(=O)NNC(=O)c2cc(C)oc2C)c1OC	13%	0%	.
37	CCN(CC)S(=O)(=O)c1ccc2oc(C(=O)NCc3ccc(F)cc3)c(C)c2c1	-22%	-16%	?
38	COc1cc(OC)c(OC)cc1/C=N/n1c(C)nnc1C	-9%	18%	-9%
39	COC(=O)[C@@H](CC(C)C)NS(=O)(=O)N(Cc1ccccc1)[C@@H](CC(C)C)C(=O)OC	-19%	6%	.
40	CC1=CCCC(C)(C)C1/C=C/C(C)=N/NC(=O)c1ccncc1 (stereo not given)	-9%	9%	-5%
41	COC(=O)Cc1cc(=O)oc2cc(O)ccc12	21%	-11%	.

nr	ERG Ets-DNA blk	LDHA block	Pol kappa inh
31	-4%	-5	-9%
32	-2%	-6	-13%
33	-10%	-6	-9%
34	6%	0	-6%
35	-7%	3	-9%
36	7%	7	?
37	-3%	-2	-6%
38	-1%	0	7%
39	-4%	2	-4%&-10%
40	9%	5	-1%
41	-8%	-8	-5%

# Source: PubChem BioAssay

# Only part of the results is shown (hit frequency here may not be typical).
